Compound activity (PubChem)
Bm FixLJ act = activators of Burkholderia fixLJ two-component system, primary screen, B. multivorans, GFP reporter; B. multivorans fixK-promoter GFP reporter, 18 h; hits give high values; z-score (no concentration beside the values); 29,000 tested, 0.3% active;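 active means replicate mean overnight rise in green fluorescent reporter signal, 3 or more SD over negative controls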;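 further: score is relative to vehicle wells of the plate; 300 nL library stock went into each well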
* marks the source's active call; other numbers are inactive results; & = joins results of further samples.

For CC(=O)[C@H]1CCC2C3C[C@H](C)C4=CC(=O)CC[C@]4(C)C3[C@@H](O)C[C@@]21C (stereo not given in full) the results were Bm FixLJ act -1.8.
Screening O=C(c1ccc(F)cc1)C1CCN(CCn2c(=O)[nH]c3ccccc3c2=O)CC1 returned Bm FixLJ act -1.4.
Screening c1ccc(CN(CC2=NCCN2)c2ccccc2)cc1 returned Bm FixLJ act -0.64.
Screening COc1cc2c(cc1OC)C(=O)C(CC1CCN(Cc3ccccc3)CC1)C2 (stereo not given) returned Bm FixLJ act -2.6.
CCC(C)n1ncn(-c2ccc(N3CCN(c4ccc(OCC5COC(Cn6cncn6)(c6ccc(Cl)cc6Cl)O5)cc4)CC3)cc2)c1=O (stereo not given) was read as Bm FixLJ act -0.89.
For CC(C)C[C@@H](CN)CC(=O)O the results were Bm FixLJ act -1.6.
For COc1ccc(C(=O)CC(=O)c2ccc(C(C)(C)C)cc2)cc1 the results were Bm FixLJ act -2.
For Cc1ccc(C)c(NC(=O)Cn2cc(C(=O)c3ccco3)c3ccccc32)c1 the results were Bm FixLJ act -3.7.
`CC(=O)c1ccc2c(c1)N(CCCN(C)C)c1ccccc1S2` gave Bm FixLJ act -0.35.
`c1ccc(CC2=NCCN2)cc1` gave Bm FixLJ act -1.4.
Screening O=S(=O)(c1cccc2cnccc12)N1CCCNCC1 returned Bm FixLJ act -1.4.
For Cc1nc2ccccn2c(=O)c1CCN1CCC(C(=O)c2ccc(F)cc2)CC1 the results were Bm FixLJ act -3.2.
Screening CC(COc1ccccc1)NC(C)[C@H](O)c1ccc(O)cc1 (stereo not given in full) returned Bm FixLJ act -0.46.
For CCN1CCN(CCCNC(=O)c2cc3c(s2)-c2c(C)cccc2OC3)CC1 the results were Bm FixLJ act -0.35.
Screening Cn1c(=O)c2c(ncn2CC2OCCO2)n(C)c1=O returned Bm FixLJ act -1.1.
C1CCC(C(CC2CCCCN2)C2CCCCC2)CC1 (stereo not given) was read as Bm FixLJ act 1.7.
Screening CCOC(=O)N1CCc2c(sc3c2c(=O)n(Cc2ccccc2)c(=O)n3CC(=O)Nc2ccc(F)cc2)C1 returned Bm FixLJ act 0.52.
Cc1cc(-c2ccccc2)nnc1NCCN1CCOCC1 was read as Bm FixLJ act -1.9.
`CC(=O)c1ccc(S(=O)(=O)NC(=O)NC2CCCCC2)cc1` gave Bm FixLJ act -0.22.
CN(C(=O)CCCOc1ccc2[nH]c(=O)ccc2c1)C1CCCCC1 was read as Bm FixLJ act -1.2.
`CN1CCN(C(c2ccccc2)c2ccccc2)CC1` gave Bm FixLJ act -0.18.
`CC1COc2c(N3CCN(C)CC3)c(F)cc3c(=O)c(C(=O)O)cn1c23` (stereo not given) gave Bm FixLJ act -1.3&-2.8.
Screening CCOc1ccc(NC(=O)Cn2cc(C(=O)c3ccco3)c3ccccc32)cc1 returned Bm FixLJ act -0.12.
CC(=O)O[C@]1(C(C)=O)CCC2C3C=C(Cl)C4=CC(=O)[C@@H]5C[C@@H]5[C@]4(C)C3CC[C@@]21C (stereo not given in full) was read as Bm FixLJ act 0.12.
C=CC1=C(C(=O)O)N2C(=O)[C@@H](NC(=O)/C(=N\O)c3csc(N)n3)[C@H]2SC1 (stereo in doubt) was read as Bm FixLJ act -6.3.
COc1ccc(/C=C/C(=O)Nc2ccccc2C(=O)O)cc1OC was read as Bm FixLJ act -1.4.
COc1ccc(C(=O)NCc2ccc(OCCN(C)C)cc2)cc1OC was read as Bm FixLJ act -2.1.
For COc1cc(C(c2c(C)[nH][nH]c2=O)c2c(C)[nH][nH]c2=O)ccc1OC(=O)c1ccccc1F the results were Bm FixLJ act -1.6.
Screening CC(C(=O)O)c1ccc(C(=O)c2cccs2)cc1 (stereo not given) returned Bm FixLJ act 0.22.
Screening CCN(CC)CCNC(=O)c1cc(Cl)c(N)cc1OC returned Bm FixLJ act -1.3&-0.45.
Screening O=C(CCNNC(=O)c1ccncc1)NCc1ccccc1 returned Bm FixLJ act -1.4&-0.9.
OCCN1CCN(CCCN2c3ccccc3Sc3ccc(Cl)cc32)CC1 was read as Bm FixLJ act -1.5.
For CN1CCOC(c2ccccc2)c2ccccc2C1 (stereo not given) the results were Bm FixLJ act -0.25.
CN(C)CCOC(C)(c1ccccc1)c1ccccn1 (stereo not given) was read as Bm FixLJ act -1.5.
C[C@@H]1CC2C3C[C@H](F)C4=CC(=O)C=C[C@]4(C)[C@@]3(F)[C@@H](O)C[C@]2(C)[C@@]1(O)C(=O)COC(=O)C(C)(C)C (stereo not given in full) was read as Bm FixLJ act -0.71.
For Cc1[nH]n2c(=O)cc(-c3ccc(Cl)cc3)nc2c1-c1ccccc1 the results were Bm FixLJ act -2.
`CCOC(=O)c1ccc(N)cc1` gave Bm FixLJ act -0.94.

In the list so far, these contain a carbonyl joined to an NH by a bond outside any ring:
For Cc1ccc(C)c(NC(=O)Cn2cc(C(=O)c3ccco3)c3ccccc32)c1 the results were Bm FixLJ act -3.7.
For CCN1CCN(CCCNC(=O)c2cc3c(s2)-c2c(C)cccc2OC3)CC1 the results were Bm FixLJ act -0.35.
Screening CCOC(=O)N1CCc2c(sc3c2c(=O)n(Cc2ccccc2)c(=O)n3CC(=O)Nc2ccc(F)cc2)C1 returned Bm FixLJ act 0.52.
`CC(=O)c1ccc(S(=O)(=O)NC(=O)NC2CCCCC2)cc1` gave Bm FixLJ act -0.22.
Screening CCOc1ccc(NC(=O)Cn2cc(C(=O)c3ccco3)c3ccccc32)cc1 returned Bm FixLJ act -0.12.
C=CC1=C(C(=O)O)N2C(=O)[C@@H](NC(=O)/C(=N\O)c3csc(N)n3)[C@H]2SC1 (stereo in doubt) was read as Bm FixLJ act -6.3.
COc1ccc(/C=C/C(=O)Nc2ccccc2C(=O)O)cc1OC was read as Bm FixLJ act -1.4.
COc1ccc(C(=O)NCc2ccc(OCCN(C)C)cc2)cc1OC was read as Bm FixLJ act -2.1.
Screening CCN(CC)CCNC(=O)c1cc(Cl)c(N)cc1OC returned Bm FixLJ act -1.3&-0.45.
Screening O=C(CCNNC(=O)c1ccncc1)NCc1ccccc1 returned Bm FixLJ act -1.4&-0.9.

A portion taken from the entries so far, for reference:
For Cc1[nH]n2c(=O)cc(-c3ccc(Cl)cc3)nc2c1-c1ccccc1 the results were Bm FixLJ act -2.
`CCOC(=O)c1ccc(N)cc1` gave Bm FixLJ act -0.94.

These rows are one share of the data (hit frequency here may not be typical).
